Bioassay records as filed in PubChem.
AF4-AF9 inh: inhibitors of human MLL-AF4/AF9 interaction. inhibition, % at 10 µM. AID 651704. P42568. AlphaScreen, biotin-AF4 peptide binding to FLAG-AF9. hit rate 0.47% among 350,000;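 active means every replicate reaching a set inhibition limit, whatever the replicate mean, cut at about 25% in these data; inconclusive means mean inhibition reaches that limit but some replicates miss it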;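 further: 0% = plate neutral control median and 100% = total signal loss; the record names both 10 and 1 µM as test concentration; the first replicate is given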
Target sequence (P42568 whole entry, looked up): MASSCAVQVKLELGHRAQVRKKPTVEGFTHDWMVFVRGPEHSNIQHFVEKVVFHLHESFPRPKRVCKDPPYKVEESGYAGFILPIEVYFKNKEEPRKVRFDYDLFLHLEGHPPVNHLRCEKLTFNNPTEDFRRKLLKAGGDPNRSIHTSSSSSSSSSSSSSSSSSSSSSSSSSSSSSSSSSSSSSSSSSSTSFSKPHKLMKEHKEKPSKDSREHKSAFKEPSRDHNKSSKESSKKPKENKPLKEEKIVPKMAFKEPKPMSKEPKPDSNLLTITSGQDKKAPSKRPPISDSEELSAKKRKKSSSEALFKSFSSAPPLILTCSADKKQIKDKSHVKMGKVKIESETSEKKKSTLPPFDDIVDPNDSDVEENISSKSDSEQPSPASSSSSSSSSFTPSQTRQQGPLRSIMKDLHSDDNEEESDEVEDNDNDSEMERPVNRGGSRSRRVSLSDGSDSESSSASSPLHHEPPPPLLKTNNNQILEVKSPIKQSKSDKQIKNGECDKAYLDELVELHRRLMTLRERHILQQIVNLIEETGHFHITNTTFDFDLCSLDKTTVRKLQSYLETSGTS
Vif A3G: HIV-1 Vif–A3G interaction blockers – biochemical, TR-FRET, GST-Vif 1-94, biotin-A3G peptide, dose response retest, primary screen (AID 1117319); hit rate 0.57% among 260,000; inhibition, %, or IC50 in µM where a hit was titrated; TR-FRET GST-Vif / biotin-A3G peptide binding; higher % means a stronger effect; test concentration not given here; strong numbers were not always called active;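 active means above the screen mean plus three standard deviations and confirmed in dose response; inconclusive means results disagree or hit not tested in dose response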;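 further: Vif residues 1-94 fused to GST binding biotinylated APOBEC3G peptide 110-148; 0% = full assay without inhibitor and 100% = GST in place of GST-Vif; retest series ran down from 100 µM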
RanGTP-Imp inh: disruptors of Ran-importin-beta complex formation – biochemical, FRET, CFP-Ran, YFP-importin-beta, homogeneous, primary screen; AID 2216; hit rate 1.1% among 300,000; inhibition, % (test concentration not listed); cell-free CFP-Ran/YFP-importin-beta FRET ratio;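 active means most replicates above 15%; inconclusive means exactly half above 15%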;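 further: 0% = DMSO wells and 100% = Ran loaded with GDP instead of GTP; wells of about 40 µL received 100 nL stock; the first replicate is given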
Bfl-1 A1 inh: inhibitors of the anti-apoptotic protein A1, read as caspase activation; hit rate 0.066% among 330,000; caspase activation, % (test concentration not listed); MEF A1-2A-BIM cells, Caspase-Glo 3/7 luminescence, 3 h; percent of clofoctol response, vehicle zero;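 active means over half of replicate activation scores above 10%, or exactly half above 10 with the replicate mean above 10; inconclusive means replicate mean below 10 yet half the replicates above 10; inactive means over half of replicates below 10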;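 further: wells of about 30 µL received 50 nL stock; many hits fall short of the cut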
Beta cell apopt: beta cell apoptosis inhibition | hit rate 0.8% among 300,000 | protection from apoptosis, % (no concentration beside the values) | AID 435005 | INS-1E cytokine-induced death, ATP luminescence, 48 h; percent of positive-control rescue, neutral wells zero;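 active means all replicates at 75% or more, or half of them and the mean; inconclusive means half reach 75% but not the mean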;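 further: 0% = cytokine-treated negative control wells and 100% = positive control rescue; higher means more ATP so stronger rescue from cytokine killing; wells of about 40 µL received 100 nL stock; the first replicate is given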
T cruzi repl: blocks replication of Trypanosoma cruzi. T. cruzi beta-gal in NIH3T3, luminescence, 90 h. inhibition, % (no concentration beside the values). hit rate 1.4% among 300,000. AID 1885;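 active means mean inhibition across valid replicates above about 55%, limit read from the data; inconclusive means mean below that limit but half or more replicates reach it; inactive means mean below it, under half of replicates reach it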;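 further: signal also drops with host cell toxicity which is not excluded here; 0% = plate median of DMSO wells and 100% = zero luminescence signal; higher percent means less beta-gal luminescence so fewer parasites; stock transfer was 50 nL into about 50 µL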
Calb FLC: affects C. albicans growth with fluconazole; growth inhibition, % (test concentration not listed); AID 1979; C. albicans CaCi-2 (fluconazole-resistant clinical isolate) + fluconazole, Alamar Blue growth, 48 h; hit rate 0.57% among 300,000;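 active means most replicates above 75%; inconclusive means exactly half above 75%; inactive means most below 75%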;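 further: all wells also contain fluconazole at 8 µg/ml as a sub-toxic cotreatment; 0% = median of DMSO wells and 100% = median of geldanamycin control wells; wells of about 8 µL received 7.5 nL stock; the first replicate is given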
LANA-H2B inh: blocks KSHV LANA binding to histone H2A/H2B. Q9QR71. cell-free LANA-H2A/H2B peptide, fluorescence polarization. inhibition, % (no concentration beside the values). hit rate 0.6% among 320,000. AID 2629; in the data active means inhibition mostly above about 10%, no sharp cut-off; inactive means mostly below about 6.7%;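 further: stock transfer was 7.5 nL into about 10 µL; 0% = median of vehicle wells and 100% = median of positive control wells; one replicate is shown; the record names a cut of 25% in any replicate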
* marks the source's active call; other numbers are inactive results; ? = inconclusive; nt = not tested or not shown; & = joins results of further samples.

SMILES | AF4-AF9 inh | Vif A3G | RanGTP-Imp inh | Bfl-1 A1 inh | Beta cell apopt | T cruzi repl | Calb FLC | LANA-H2B inh
Cc1cc(C(=O)CCl)c(C)n1-c1ccon1 | -2.7 | 22% | 0.8 | nt | nt | 5 | -6 | nt
S=C(c1ccc(OCc2ccccc2)cc1)N1CCCC1 | 0.3 | nt | 0.2 | -0.2 | 2 | 2 | 2 | -22
Cc1[nH]c2ccc(C(=O)OC(C)C(=O)NC3(C#N)CCCCC3)cc2c1C (stereo not drawn) | ? | -4% | -0.4 | 0.9 | -5 | 3 | -25 | 2.0
C=CCc1ccc(OCCCOc2ccc(C)c(C)c2)c(OC)c1 | nt | 1% | 5.3 | 0.5 | -1 | 6 | -8 | -3.6
COc1cccc(C(=O)NNS(=O)(=O)c2ccc(C)cc2)c1 | -1.8 | -8% | -1.2 | 0.2 | 6 | 3 | 3 | -0.3
CCOC(=O)C1=NN(N=O)C2(CC(=O)N(c3cc(C)cc(C)c3)C2=O)C1 (stereo not drawn) | nt | 16% | 0.4 | 0.1 | -5 | -7 | 18 | -1.0
CCn1ncc(Br)c1C(=O)Nc1cc(C)on1 | -0.5 | nt | -2.0 | nt | nt | -2 | 7 | nt
CCN[C@H]1CN(CCCOC)S(=O)(=O)c2sc(S(N)(=O)=O)cc21 | 6.9 | nt | nt | 0.4 | -5 | nt | nt | 0.4
Cc1ccc(S(=O)(=O)N2CCN(CC(=O)NC(=O)NCc3ccco3)CC2)cc1C | 4.3 | nt | -3.1 | 0.4 | 1 | 29 | 9 | -1.1
Cc1ccc(N(CC(=O)NC2CCCCC2)C(=O)CNC(=O)c2cccs2)cc1 | 0.4 | nt | -2.9 | 0.0 | 3 | 20 | -1 | -5.6
COC(=O)c1ccc(NC(=O)CCN2C(=O)C3CC=CCC3C2=O)cc1 (stereo not drawn) | -0.1 | -4% | nt | 0.4 | -3 | nt | nt | 1.4
Nc1ccccc1SCCS(=O)(=O)c1ccc(Cl)cc1 | -3.5 | nt | -1.6 | -0.1 | -5 | -1 | -14 | 2.8
CCOC(=O)C1=C(C)NC(C)=C(C(=O)OCC)C1C(=O)OCC(=O)N(C)Cc1ccccc1 | 0.3 | -2% | nt | -0.3 | -1 | nt | nt | 5.4
c1csc(-c2nnsc2-c2nc3ccccc3[nH]2)c1 | nt | 0% | 0.5 | -1.5 | 8 | -18 | -5 | 0.2
Cc1oc2cc3oc(=O)c(CC(=O)N[C@@H](C)C(=O)NC(Cc4ccc(Cl)cc4)C(=O)O)c(C)c3cc2c1C (stereo partly drawn) | nt | nt | -1.6 | 0.5 | nt | 1 | -3 | -1.1
CC(=O)c1c(NCCc2ccccc2)nc(=S)n(-c2ccccc2)c1C | 3.3 | nt | 4.2 | ? | 0 | -10 | -4 | 2.7
Cc1cc(C)c2sc(N(CCN(C)C)C(=O)CCS(=O)(=O)c3ccccc3)nc2c1 | 0.4 | nt | ? | 0.2 | -5 | 30 | 0 | -4.0
O=C(CSc1nnc(CNC(=O)c2ccco2)o1)Nc1ccccc1 | -5.4 | -1% | 0.8 | 0.4 | -3 | -16 | -4 | -7.7
CC(C)C[C@H]1COCCS(=O)(=O)N1Cc1ccc(Cl)c(Cl)c1 | -1.5 | nt | -2.6 | -1.2 | -12 | 4 | 1 | 1.1
CNc1nc(C)nc(-n2nc(C)cc2C)n1 | nt | 8% | -4.6 | -1.5 | -3 | -27 | -10 | 3.0
CC(C)Oc1ccc(CNC(=O)c2ccc3c(c2)N(C)CCS3)cc1 | -2.4 | nt | 0.6 | 1.2 | -3 | 20 | -3 | -4.2
C=CCNc1sc(C(=O)c2cccs2)c(N)c1C#N | nt | 16% | -6.1 | -0.3 | -4 | 3 | 5 | 0.8
O=C(c1ccc2oc(Cc3ccc(Cl)cc3)nc2c1)N1CC[C@H](O)C1 | 0.0 | nt | -1.7 | -0.9 | 1 | -1 | 4 | -1.1
NC(=O)CC(NC(=O)Cc1cccc2ccccc12)c1ccc(NCCN2CCCCC2)c([N+](=O)[O-])c1 (stereo not drawn) | 1.4 | nt | -1.6 | 1.0 | -2 | -2 | -2 | 0.1
Cc1cc(C)nc(N/C(=N\S(=O)(=O)Cc2ccccc2)Nc2ccccc2Br)n1 | nt | nt | 1.1 | -0.3 | -4 | 21 | 1 | -3.8
SMILES | AF4-AF9 inh | Vif A3G | RanGTP-Imp inh | Bfl-1 A1 inh | Beta cell apopt | T cruzi repl | Calb FLC | LANA-H2B inh
C[C@H](NC(=O)c1nc[nH]c1C(=O)NCc1ccccc1)C(=O)OC(C)(C)C | -2.1 | nt | 7.3 | 1.0 | -2 | -12 | -1 | -0.4
O=C(NCCC(=O)N1CCCCC1)c1ccc(Br)cc1 | -9.3 | 4% | 5.9 | 2.4 | nt | -11 | -2 | -3.2
CCN(CC)C(=O)Cn1cnc2sc(C(=O)N3CCN(c4ccc(OC)cc4)CC3)c(C)c2c1=O | nt | 4% | 0.6 | 0.9 | -3 | 0 | ? | -1.8
CCOC(=O)N1CCC(NCCNC(=O)c2ccc(F)cc2)CC1 | -1.6 | nt | nt | 1.5 | 0 | nt | nt | 7.9
O=C(COc1cc(Cl)ccc1Cl)Nc1nnc(C2CC2)s1 | -2.4 | nt | 1.4 | 1.0 | -6 | -10 | -3 | -6.3
O=C(/C=C/c1ccco1)N(Cc1ccc(F)cc1)C1CCS(=O)(=O)C1 (stereo not drawn) | nt | 24% | 2.1 | -0.4 | -6 | -17 | -9 | 3.5
O=C(O)CCC(NC(=O)c1cncc(O)c1)C(=O)O (stereo not drawn) | nt | 3% | ? | -1.2 | -9 | 0 | -10 | 1.3
COCCn1nnnc1C(c1cc2ccc(OC)cc2[nH]c1=O)N1CCc2ccccc2C1 (stereo not drawn) | nt | 18% | 0.0 | -0.9 | -6 | -9 | 24 | 1.4
Cc1nnnn1/C(=C\c1ccccc1)C(=O)OCC(=O)N(C)C1CCS(=O)(=O)C1 (stereo not drawn) | nt | -2% | ? | 1.3 | nt | -11 | -3 | -1.0
CCC(=O)n1nc(-c2ccc(OC)cc2)nc1N | nt | -2% | 2.4 | 1.3 | -1 | 1 | -1 | 0.8
CCOc1ccc(-c2nnn(CC(=O)Nc3cc(OC)ccc3OC)n2)cc1OCC | 2.7 | -5% | -0.4 | 0.6 | -6 | 10 | -2 | -1.2
COc1cc(-c2c(C#N)c(N)nc3c2CCCC3)cc(OC)c1OC | nt | 26% | 1.9 | 0.1 | -1 | 1 | -11 | -4.5
COC(=O)C(NC(=O)c1ccc(F)cc1)(Nc1nc(C)cs1)C(F)(F)F (stereo not drawn) | nt | 4% | 0.4 | 1.1 | 6 | -8 | -1 | 0.9
COc1ccc([N+](=O)[O-])cc1N(CC(O)CN1C(=O)NC(C)(C)C1=O)S(=O)(=O)c1ccccc1 (stereo not drawn) | 2.2 | nt | 0.0 | -1.8 | -2 | -3 | -5 | 7.3
Cn1cc(C(=O)N2CCc3ccccc3C2)c(=O)c2cc(S(=O)(=O)N3CCCCC3)ccc21 | nt | -1% | 2.7 | 0.1 | 2 | 2 | -8 | 0.6
COc1cc2c(cc1OC)C1(CCCC1)CNC2c1cccc([N+](=O)[O-])c1 (stereo not drawn) | 0.3 | 2% | -9.7 | 0.7 | nt | -3 | -7 | 8.4
Cc1cccc(/N=C/C2=C(O)CC(C)(C)CC2=O)n1 | 0.9 | 3% | 0.1 | 0.5 | -15 | 6 | -5 | 1.1
CC1(C2CC2)NC(=O)N(CC(=O)NCC(=O)Nc2ccc(F)c(F)c2F)C1=O (stereo not drawn) | -16 | -6% | nt | -1.0 | 1 | nt | nt | 1.9
Cc1ccc2nc(SCc3cccc([N+](=O)[O-])c3)nc(C)c2c1 | nt | 1% | 3.6 | -0.3 | -5 | 19 | 2 | 3.4
Cc1cc(=O)n2c(n1)NC(Nc1cccc(C)c1C)=NC2c1ccc(F)cc1 (stereo not drawn) | nt | -4% | 0.9 | 0.2 | 0 | 19 | 0 | 4.8
C=CCn1c(Sc2ccccc2)nc2c1c(=O)[nH]c(=O)n2C | nt | 1% | -2.4 | -1.0 | 4 | 1 | 2 | -3.0
COc1ccc(F)cc1S(=O)(=O)Nc1cccc(C(=O)O)c1 | -0.4 | 4% | -3.2 | 0.8 | -10 | -33 | -6 | -2.7
CN(C)CCCNS(=O)(=O)c1ccc(N2CCC(c3ccc(Cl)cc3)=N2)cc1 | nt | 24% | 27* | 0.7 | 12 | 72* | -1 | 0.5
O=C(O)c1ccccc1-c1ccccc1C(=O)NNc1ccc([N+](=O)[O-])cc1 | -7.0 | 20% | 1.9 | 0.6 | -1 | -6 | -4 | -11
CC1=C(C(N)=O)C(c2ccccn2)n2nc(SCc3ccccc3Cl)nc2N1 (stereo not drawn) | nt | -9% | 5.4 | -0.3 | -7 | -10 | -4 | 4.8
SMILES | AF4-AF9 inh | Vif A3G | RanGTP-Imp inh | Bfl-1 A1 inh | Beta cell apopt | T cruzi repl | Calb FLC | LANA-H2B inh
COc1cc(CNC(=O)c2cc3ccccc3oc2=O)cc(OC)c1OC | -7.9 | nt | 4.2 | -0.1 | -4 | -2 | -1 | 1.1
CC(C)NC(=O)CN(C(=O)CCC(=O)Nc1nccs1)c1ccc(C(C)C)cc1 | 0.2 | -5% | -3.5 | 0.2 | 0 | 9 | -1 | -6.1
CC1(C)Cc2nc3[nH]c(=S)[nH]c(=O)c3cc2CO1 | -9.0 | 4% | -2.2 | 0.2 | -3 | -6 | -4 | -6.2
Cc1ccc(OCCn2cc(C#N)c3ccccc32)cc1 | nt | 8% | -1.0 | -0.1 | -2 | 32 | -6 | 1.9
O=C(Nc1ccnc(-c2cccnc2)n1)c1ccc(F)cc1 | nt | 6% | 7.0 | 0.2 | -10 | -17 | -2 | -2.4
N#CCOC(=O)[C@H](Cc1ccccc1)N1C(=O)c2ccccc2C1=O | 1.4 | 0% | 0.5 | 0.1 | -11 | -4 | 1 | -0.2
CC1=CC(C)(C)[N+](C)=CN1c1ccccc1 | -3.8 | 4% | 1.1 | -0.6 | -6 | -28 | 32 | 2.5
O=C(Nc1ccc(-c2nc3cc(NC(=O)c4cccs4)ccc3o2)cc1)c1cccs1 | nt | -11%&7% | 6.3 | 17* | 26 | -3 | -4 | -4.4
CCC(C)[C@H]1COCCS(=O)(=O)N1Cc1ccc(C)cc1 (stereo partly drawn) | nt | nt | -1.6 | 0.3 | 1 | -1 | 10 | -3.2
COc1cc(C2c3c(oc4ccccc4c3=O)C(=O)N2c2nccs2)ccc1O (stereo not drawn) | -1.7 | ? | -0.3 | -0.3 | 5 | 0 | 20 | 3.1
CCOc1ccc(Cl)cc1/C=N/NC(=O)c1ccccc1 | -7.7 | -10% | 3.9 | -0.5 | 2 | -7 | 0 | 0.1
O=S(=O)(NCc1ccc2c(c1)OCO2)c1ccc(F)c(F)c1 | 0.5 | 4% | -0.7 | 0.2 | -2 | -10 | 3 | 0.4
O=C(NCc1cccnc1)C(=O)NCC1OCCCN1S(=O)(=O)c1ccccc1 (stereo not drawn) | nt | nt | 0.0 | 0.8 | -10 | -7 | -13 | 0.5
COC(=O)c1ccccc1NC(=O)n1cc(C)cn1 | nt | -7% | 4.4 | 0.9 | -8 | -7 | ? | -6.0
